Vaccinia Venus: qHTS for Stage-Specific Inhibitors of Vaccinia Orthopoxvirus: Venus Reporter Primary qHTS | Vaccinia virus Venus reporter expression, fluorescence | Potency, µM (series often up to 36.5 µM), for inactives: at the top dose activity change, negative = inhibition, usual class: inhibitors | 330,000 tested, 0.46% active | AID 720580, 2013; active means well fitted inhibition curve with a large enough effect; inconclusive means small, poorly fitted or top-dose-only effect; inactive means no such curve, though single readings can be large or run the other way; tested in A549 cells; also: nearly all actives have a fitted effect of over 30% in size; inactives centre near -10
Vaccinia mCherry: qHTS for Stage-Specific Inhibitors of Vaccinia Orthopoxvirus: mCherry Reporter Primary qHTS | Vaccinia virus mCherry reporter infection, fluorescence; about a quarter of the inactives have no number | Potency, µM (highest dose often 36.5 µM), for inactives: at the highest dose activity change, negative = inhibition, most hits filed as inhibitors | 310,000 tested, 0.63% active | AID 720579, 2013; active = well fitted inhibition curve with a large enough effect; inconclusive = small, poorly fitted or top-dose-only effect; inactive = no such curve, though single readings can be large or run the other way; tested in A549 cells; also: nearly all actives have a fitted effect of over 35% in size; inactives centre near -10
* marks the source's active call; other numbers are inactive results; i = inactive; ? = inconclusive; / = no result given; [ ] = remark or other dose. % is scaled to controls: 0 for no effect and ±100 for the full control effect; potency is read from the fitted curve at half-maximal effect. An unsorted share of the library; 0.87% or so of the library scored in one or more.

Start of the listing, in advance, 5 compounds:
SMILES | Vaccinia Venus | Vaccinia mCherry
COc1ccc(-c2noc(C3CCCN(C(=O)c4c(F)cccc4F)C3)n2)cc1OC (centres undefined) | -22% | -28%
O=C(CN(C(=O)c1csnn1)c1cccc(C(F)(F)F)c1)NCCc1ccccc1 | -8% | -18%
O=C(COC(=O)c1ccc2c(c1)OCO2)NC1CCCCC1 | 3% | i
CC1CCN(S(=O)(=O)N2CCC(C(=O)NCc3ccc4c(c3)OCO4)CC2)CC1 | -21% | i
O=C(Nc1cnc2ccccn2c1=O)c1ccc(Cl)cc1Cl | -8% | -2%

Main list, from the start:
SMILES | Vaccinia Venus | Vaccinia mCherry
COc1ccc(-c2noc(C3CCCN(C(=O)c4c(F)cccc4F)C3)n2)cc1OC (centres undefined) | -22% | -28%
O=C(CN(C(=O)c1csnn1)c1cccc(C(F)(F)F)c1)NCCc1ccccc1 | -8% | -18%
O=C(COC(=O)c1ccc2c(c1)OCO2)NC1CCCCC1 | 3% | i
CC1CCN(S(=O)(=O)N2CCC(C(=O)NCc3ccc4c(c3)OCO4)CC2)CC1 | -21% | i
O=C(Nc1cnc2ccccn2c1=O)c1ccc(Cl)cc1Cl | -8% | -2%
Cc1ccccc1C(=O)Nc1nnc(S(=O)(=O)N(C)Cc2ccc(Cl)cc2)s1 | -6% | -12%
Cc1onc(-c2ccccc2)c1C(=O)NNC(=S)NC(=O)/C=C/c1cccs1 | -20% | -22%
COc1ccc(C(CNC(=O)C(CCSC)NC(=O)c2ccccc2OC)N2CCCCC2)cc1 (centres undefined) | -20% | -29%
CCCCOc1ccc(C(=O)OC2CC(C)N(C)CC2C)cc1 (centres undefined) | -17% | -23%
COc1ccc(C(=O)Nc2ccc(N3CCCC3)cc2)cc1Br | -21% | -19%
CSc1c[n+]2c(n1C)CCC2 | -9% | -18%
Cc1cc(C)c2c(c1)c(C)cc1nnc(SCC(=O)c3ccccc3)n12 | -10% | -13%
CN(Cc1ccccc1)c1cc(Cl)nc(N)n1 | -12% | i
CC1CN(CC(=O)NCc2ccc(F)cc2)CC(C)O1 (centres undefined) | -5% | -4%
CCOC(=O)N1CCN(CC(=O)N2c3ccccc3Sc3ccccc32)CC1 | -13% | -20%
CC1(c2ccccc2)NC(=O)N(CC(=O)Nc2ccccc2N2CCCC2)C1=O (centres undefined) | -20% | -19%
CCOC(=O)c1ccc(CN(Cc2ccc(F)cc2)S(=O)(=O)c2ccc(F)c(C(=O)Nc3ccccc3C(F)(F)F)c2)cc1 | -15% | -9%
CC(=O)N1CCc2cc(S(=O)(=O)NC(C(=O)N3CCN(c4ccccc4F)CC3)C(C)C)ccc21 (centres undefined) | -10% | i
Cc1cc(O)c(C(c2ccccc2)N2CCN(C)CC2)c(=O)n1Cc1ccco1 (centres undefined) | -3% | -11%
O=C(Nc1ccncc1)c1cccc2ccccc12 | -24% | -7%
O=C(C1CCC(Cn2c(=O)c3sccc3n(Cc3ccccc3)c2=O)CC1)N1CCCCC1 (centres undefined) | -26% | ?
Cc1nc(-c2ccc(NC(=O)c3cccs3)cc2)cs1 | -17% | -21%
Fc1ccc(/C=N/NC(=S)Nc2ccc(Cl)cc2)cc1F | -23% | -3%
CC(=O)n1c2c(c3ccccc31)OC(N)=C(C#N)C2c1ccc(C(C)C)cc1 (centres undefined) | -26% | -16%
CC1(C)CC(=O)C(C2C3=C(CC(C)(C)CC3=O)Oc3ccccc32)C(=O)C1 (centres undefined) | -22% | ?
SMILES | Vaccinia Venus | Vaccinia mCherry
Nc1cc(OC(=O)c2c(F)cccc2Cl)nn1S(=O)(=O)c1ccccc1 | -28% | -28%
Cn1cccc1CC(=O)N/N=C/c1ccc([N+](=O)[O-])cc1 | -12% | -5%
CCCNC(=O)c1ccc2c(=O)n3c(-c4ccc(C)cc4)csc3nc2c1 | -13% | 2%
COc1cccc(NC(=O)CN(C)C(=O)c2cc(S(=O)(=O)N3CCCCC3)ccc2Cl)c1 | 3% | -16%
O=C(C1CC=CCC1)N1CCCCCC1 (centres undefined) | 3% | i
Cc1ccc(C(=O)NCC(=O)N2CCc3ccccc3C2)cc1C | -4% | i
COc1ccc(CN2C(=O)c3oc4ccccc4c(=O)c3C2c2ccc(O)cc2)cc1 (centres undefined) | -2% | 6%
COc1ccc(NCc2nnc(SCc3ccc(Cl)cc3)n2-c2ccccc2)cc1 | -16% | i
O=C(COC(=O)Cc1c[nH]c2ccccc12)Nc1ccccc1 | -5% | -14%
CN(C(=O)c1nn(C)c2c1COc1ccccc1-2)c1cccc(C(F)(F)F)c1 | -13% | -17%
O=C(CN(c1ccc(F)cc1)S(=O)(=O)c1ccc2c(c1)OCCO2)N1CCOCC1 | -2% | 0%
O=C(NCc1ccncc1)C(=O)NCC1OCCN1S(=O)(=O)c1ccccc1 (centres undefined) | -8% | -11%
Cc1ccc(S(=O)(=O)N(C)C)cc1NC(=O)C(C)NC(C)c1cccs1 (centres undefined) | -14% | -28%
CNc1cncc(-c2cccc(C(=O)N3CCOCC3)c2)n1 | -8% | 37%[activator]
COc1ccc(C(=O)Nc2ccccc2C(=O)N/N=C/c2ccncc2)cc1OC | -5% | -8%
CCc1ccccc1N1CCN(S(=O)(=O)c2ccc(F)c(C)c2)CC1 | -12% | -19%
CCN1C(=O)S/C(=C/c2ccc(Sc3nc4ccccc4[nH]3)o2)C1=O | -23% | -29%
CNc1c(N)c(=O)oc2ccccc12 | 5% | ?
Cc1ccc(S(=O)(=O)NNC(=O)Nc2ccc(Cl)cc2)cc1 | -4% | 1%
O=C(NCCc1ccc(Cl)cc1Cl)c1cc([N+](=O)[O-])c[nH]c1=O | -17% | -18%
COc1ccc(C)cc1-n1nnnc1SCC1CCCO1 (centres undefined) | -18% | -2%
O=C(CN(c1ccccc1Cl)S(=O)(=O)c1ccccc1)N/N=C/c1ccccc1C(=O)O | -15% | -6%
CCNC(=O)CNC(=O)c1nn(Cc2ccccc2)c(=O)c2ccccc12 | -2% | -10%
Cn1nc(C(=O)NCCc2ccc(Cl)cc2)c2c1-c1ccccc1SC2 | -9% | -16%
O=S(=O)(c1ccc(Cl)cc1)N1CCC(c2nc3ccccc3[nH]2)CC1 | ? | ?
SMILES | Vaccinia Venus | Vaccinia mCherry
Cc1cc(OCC(=O)Nc2ccccn2)c2c(C)cc(=O)oc2c1 | -10% | i
C/C(CCc1oc2c(Br)cc(Br)cc2c1-c1ccc(C)o1)=N\O | -2% | i
CCOC(=O)c1sc2ncn(CC(=O)N(CC)CC)c(=O)c2c1C | -1% | -10%
O=C(NCCS(=O)(=O)N1CCN(c2cccc(Cl)c2)CC1)c1ccco1 | -15% | -26%
Cc1cccc(C)c1NC(=O)c1csc(COCCO)n1 | -2% | 12%
O=C(COC(=O)c1n[nH]c2ccccc12)Nc1ccccc1F | -3% | -10%
Cc1ccc(OCC(=O)NNC(=O)C2CSC3(C)CCC(=O)N23)cc1 (centres undefined) | -3% | i
CC(C)NC(=O)Cn1nnc(-c2cccc(NC(=O)c3ccccc3F)c2)n1 | -30% | -10%
CC(C)CCN(C(=O)c1csnn1)C(C(=O)NC1CCCC1)c1ccc(F)cc1 (centres undefined) | -18% | -19%
Cc1cccc(-c2nnc(SCCC(=O)O)o2)c1 | 0% | -6%
CCOC(=O)C1CCN(c2c(N3CCCCCC3)c(=O)c2=O)CC1 | 1% | -1%
COc1ccccc1CC1(C)C(=O)Nc2c(Cl)cccc21 (centres undefined) | -12% | i
Cc1ccc(-c2nnc(N3CCOCC3)c3ccccc23)cc1S(=O)(=O)N(C)C | 2% | ?
O=c1cc(-c2ccccc2Cl)oc2c(NS(=O)(=O)c3cccs3)ccc(O)c12 | -16% | -5%
CC(=O)Nc1ccccc1-c1nc2ccc(C(=O)N3CCN(c4cc(C)ccc4C)CC3)cc2[nH]c1=O | ? | -21%
CCOc1cccc(N2C(=O)CC(N3CCC(C(N)=O)(N4CCCCC4)CC3)C2=O)c1 (centres undefined) | -14% | -14%
O=C1c2cccc3c(N4CCOCC4)c([N+](=O)[O-])cc(c23)C(=O)N1c1cccc2ccccc12 | 0% | i
COC(=O)Cn1c(=O)c2c(nc(Br)n2Cc2ccccc2Cl)n(C)c1=O | -12% | ?
CCC(=O)OC1(c2cccc(C)c2)CC(C)N(C)CC1C (centres undefined) | 8% | /
CC(C)(C)NC(=O)c1ccccc1-c1nc(-c2ccccc2Cl)no1 | 17% | /
O=C(Cn1cnc([N+](=O)[O-])n1)N/N=C/c1ccc2ccccc2c1 | 0% | -4%
CCCOc1ccc(CC(=O)NNC(=S)Nc2ccccc2)cc1Br | -12% | -15%
COc1cc(S(=O)(=O)N(Cc2ccccn2)Cc2ccccc2Cl)ccc1-n1cnnn1 | -6% | -13%
CC(C)c1ccc(NC(=O)C(=O)C2C(=O)Nc3ccccc32)cc1 (centres undefined) | -29% | i
COCCCn1c(=N)c(C(=O)NC2CCCCC2)cc2c(=O)n3cc(C)ccc3nc21 | 1% | 0%

Reformatted with two lines to a compound: entries from further up
Order of values: Vaccinia Venus	Vaccinia mCherry
- O=C(Cn1cnc([N+](=O)[O-])n1)N/N=C/c1ccc2ccccc2c1
    0%	-4%
- CCCOc1ccc(CC(=O)NNC(=S)Nc2ccccc2)cc1Br
    -12%	-15%

Laid out differently: results already given.
Molecule,Vaccinia Venus,Vaccinia mCherry
O=c1cc(-c2ccccc2Cl)oc2c(NS(=O)(=O)c3cccs3)ccc(O)c12,-16%,-5%
CC(=O)Nc1ccccc1-c1nc2ccc(C(=O)N3CCN(c4cc(C)ccc4C)CC3)cc2[nH]c1=O,?,-21%
CCOc1cccc(N2C(=O)CC(N3CCC(C(N)=O)(N4CCCCC4)CC3)C2=O)c1 (centres undefined),-14%,-14%

Next records.
SMILES | Vaccinia Venus | Vaccinia mCherry
[O-]/[N+](=C\c1ccccc1)c1ccccc1 | -4% | ?
COc1cccc(CNC(=O)c2nnn(CC(=O)Nc3cc(Cl)ccc3C)c2N)c1 | -16% | 0%
CC1(C)Cc2ccccc2-c2nc3n(c(=O)c21)CCCS3 | -12% | -15%
COc1ccc(S(=O)(=O)Nc2cc3c4c(c2)CCC(=O)N4CCC3)cc1 | -17% | i
Cc1ccccc1Nc1nnc(SCC(=O)NCc2ccco2)s1 | -1% | /
CCN1C(=O)C(CC(=O)Nc2ccc(OC)cc2)N(Cc2ccc3c(c2)OCO3)C1=S (centres undefined) | -8% | i
Cc1ccc(NC(=O)CN2C(=O)c3ccccc3S2(=O)=O)c(C)c1 | 2% | -10%
COc1ccc(C(=O)OCC(=O)Nc2ccc3c(c2)OCO3)cc1S(=O)(=O)N1CCOCC1 | -10% | -12%
CCOc1ccc(N(CC(=O)Nc2cccc(Cl)c2)S(=O)(=O)c2c(C)noc2C)cc1 | -27% | -16%
CCOC(=O)C1(CCOC)CCCCC1=O (centres undefined) | -3% | i
CCOc1ccc(NC(=O)CC2C(=O)N(c3ccccc3)C(=O)N2CCOC)cc1 (centres undefined) | -1% | i
CC(C)(C)c1ccc(Nc2n[nH]c3ccccc23)cc1 | -23% | i
CCOC(=O)N1CCN(C(=O)CSc2nc(=O)n3ccc(C)cc3n2)CC1 | -8% | -1%
CC1Cc2c([nH]c3ccccc23)C2c3ccccc3CN12 (centres undefined) | 0% | -7%
C/C(=N\NC(=O)c1nn(C)c(C)c1Br)c1cccc(NC(=O)c2ccoc2C)c1 | -7% | i
Cn1cc(C(=O)OCC2CCN(CCNS(C)(=O)=O)CC2)c2ccccc21 | -19% | -5%
COc1cc(/C=C2\C(=N)N3N=C(N4CCOCC4)SC3=NC2=O)ccc1OC(=O)c1ccccc1 | -13% | i
CC(C)c1nc2cccnc2n1C1CCN(C(=O)Cn2cccn2)CC1 | 4% | -10%
CC(=O)c1ccc(S(=O)(=O)N2CCC3(CC2)CC(=O)c2ccccc2O3)cc1 | -12% | -11%
CC(C)(C)NC(=O)COC(=O)c1ccccc1OCC(=O)Nc1ccc(Br)cc1 | -17% | i
COCCCn1c(SCC(=O)NC(C)(C)C)nnc1-c1cccs1 | 0% | i
COc1cc(OC)c2c(c1)OC(=O)CC2c1ccc2c(c1)OCO2 (centres undefined) | -11% | -13%
COc1ccc(CCN(CC(=O)NC2CCCC2)C(=O)Cn2nnc(-c3ccc(C)o3)n2)cc1OC | 1% | i
Cn1c(CCNC(=O)c2ccco2)nc2cc(NC(=O)NC3CCCCC3)ccc21 | 6% | -7%
Cc1cc(C)cc(OCC(=O)N/N=C/c2ccc([N+](=O)[O-])o2)c1 | ? | ?

Reprinted from the part before: 2 entries, then new ones.
SMILES | Vaccinia Venus | Vaccinia mCherry
Cn1c(CCNC(=O)c2ccco2)nc2cc(NC(=O)NC3CCCCC3)ccc21 | 6% | -7%
Cc1cc(C)cc(OCC(=O)N/N=C/c2ccc([N+](=O)[O-])o2)c1 | ? | ?
COCCNC(=O)c1cc(-c2ccccc2)nn1CC1CC(c2cccc([N+](=O)[O-])c2)=NO1 (centres undefined) | -6% | -11%
CCc1ccc(NC(=O)c2ccc(F)c(S(=O)(=O)N3CCC(C)CC3)c2)cc1 | -22% | i
CCc1ccccc1NC(=O)CSc1ncc(S(=O)(=O)c2ccc(C(C)C)cc2)c(N)n1 | -9% | 2%
COCCNc1cc(C)c(C#N)c2nc3ccccc3n12 | 6% | 2%
CCN(CC)CCNCC(O)(c1ccc(Cl)cc1)c1ccc(Cl)cc1 | -10% | i
CCOC(=O)/C(C#N)=C/c1cc2ccccc2nc1N1CCCCC1 | 0% | i
O=c1nc2ccc(Cl)cn2c2ccc(S(=O)(=O)N3CCOCC3)cc12 | -8% | -15%
